Screening data: PubChem BioAssay, Center for Chemical Genomics, University of Michigan
TAR Tat displ: HIV-1 TAR-Tat binding disruption. HIV-1 TAR RNA, Tat peptide displacement FRET; stronger effect = higher value. z-score (test concentration not listed). hit rate 0.6% among 100,000. AID 1259389;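 note: score is relative to mean and SD of negative controls; some compounds called inactive have numbers as strong as hits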
CDC25B CDK2 inh: human CDC25B-CDK2/CyclinA binding inhibition; P30305+P24941; hit rate 0.72% among 94,000; z-score (concentration not given with the values); AID 1259370; HTRF CDC25B-CDK2/CyclinA binding, anti-His/anti-Flag; stronger effect = higher value;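 note: score is relative to mean and SD of negative controls; strong numbers were not always called active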
* marks the source's active call; other numbers are inactive results; x = not tested or not shown.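 Rule for the calls: active = z-score from 3 up in half or more of its runs; inactive = the rest.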 Some of the compounds tested. The share of hits here may be higher or lower than overall.

1) CN1C(=O)C(Cc2nc3ccccc3c(=O)n2-c2ccc(Cl)cc2)c2ccccc21 (configuration not stated)
2) CSc1ccc(C2SCC(=O)Nc3c2c(C)nn3-c2ccccc2Cl)cc1 (configuration not stated)
3) O=C1C2CCCN2C(c2ccccc2F)N1c1ccccn1 (configuration not stated)
4) CC(C)=CCCC1(C)C=Cc2c(O)c3c(c(CC=C(C)C)c2O1)OC12C(=CC4CC1C(C)(C)OC2(C/C=C(\C)C(N)=O)C4=O)C3=O (configuration not stated)
5) Clc1cccc(CN2CCN(Cc3ccccc3Br)CC2)c1
6) CCCC(C)n1[nH]c(=O)c2c1NC(=O)CSC2c1ccc(F)cc1 (configuration not stated)
7) CN(C)CCN(C(=O)Cc1ccccc1)c1nc2cc3c(cc2s1)OCO3
8) Fc1ccc(CN2CCN(Cc3ccccc3F)CC2)cc1
assay / entry | 1 | 2 | 3 | 4 | 5 | 6 | 7 | 8
TAR Tat displ | -0.89 | 0.49 | x | 3.27 | x | 0.44 | 1.45 | x
CDC25B CDK2 inh | -1.08 | -1.53 | -0.41 | x | 0.39 | -2.14 | x | 0.92

A section of the results above, for reference:
7) CN(C)CCN(C(=O)Cc1ccccc1)c1nc2cc3c(cc2s1)OCO3
8) Fc1ccc(CN2CCN(Cc3ccccc3F)CC2)cc1
assay / entry | 7 | 8
TAR Tat displ | 1.45 | x
CDC25B CDK2 inh | x | 0.92

Next entries follow:
9) CC[C@H](C)/C=C(C)/C=C/C1=CC2=C(Cl)C(=O)[C@@](C)(OC(C)=O)C(=O)C2=CO1
10) CCN(CC)c1ccc(C2SCC(=O)Nc3c2c(C)nn3-c2ccc(F)cc2)cc1 (configuration not stated)
11) Cc1ccc(C2(O)CN3CCC2CC3)cc1 (configuration not stated)
12) Cc1ccccc1N1CCNCC1
13) c1ccc2sc(Cc3cn4ccccc4n3)nc2c1
14) CCc1nc2ccccc2c(=O)n1-c1ccccc1
15) CC1(C)C(=O)[C@@H]2O[C@@H]2[C@@]2(C)C1C[C@@H](O)[C@]1(C)C2CC[C@@]2(C)[C@H](c3ccoc3)OC(=O)C3OC321 (some centres not stated)
16) O=C(NC1(C(F)(F)F)Oc2ccccc2O1)N1CCC2(CC1)OCCO2
assay / entry | 9 | 10 | 11 | 12 | 13 | 14 | 15 | 16
TAR Tat displ | -0.5 | -0.45 | 0.6 | x | -12.4 | x | 1.03 | x
CDC25B CDK2 inh | x | -3.43 | -1.44 | -0.64 | -1.59 | -1.03 | x | 0.52

Record cards, as listed above. Order of screens: TAR Tat displ | CDC25B CDK2 inh
Cc1ccccc1N1CCNCC1 is listed as x | -0.64
CCc1nc2ccccc2c(=O)n1-c1ccccc1 is listed as x | -1.03
CCN(CC)c1ccc(C2SCC(=O)Nc3c2c(C)nn3-c2ccc(F)cc2)cc1 (configuration not stated) is listed as -0.45 | -3.43
CC1(C)C(=O)[C@@H]2O[C@@H]2[C@@]2(C)C1C[C@@H](O)[C@]1(C)C2CC[C@@]2(C)[C@H](c3ccoc3)OC(=O)C3OC321 (some centres not stated) is listed as 1.03 | x

Given as labelled records: 2 of the compounds above.
11. Cc1ccc(C2(O)CN3CCC2CC3)cc1 (configuration not stated)
  TAR Tat displ = 0.6
  CDC25B CDK2 inh = -1.44
12. Cc1ccccc1N1CCNCC1
  TAR Tat displ = x
  CDC25B CDK2 inh = -0.64

(further entries)
17) CC1c2cccn2-c2ccccc2CN1C(=O)Nc1cccc2c1CCCC2 (configuration not stated)
18) Cc1ccc(CN2CCCN(Cc3ccccc3C)S2(=O)=O)cc1
19) CCCN(CCC)[C@@H]1CCc2ccc(O)cc2C1
20) O=c1c2ccccc2nc(/C=C/c2ccc([N+](=O)[O-])o2)n1-c1ccccc1Cl
21) OC1C2CCN(c3ccccc32)C1Cc1ccccc1 (configuration not stated)
22) COc1ccc2c(c1OC)C(=O)O[C@H]2[C@H]1c2cc3c(cc2CCN1C)OCO3
23) COCCOC(=O)C1=C(N)OC(C)=C(C(=O)OC(C)C)C12C(=O)Nc1ccccc12 (configuration not stated)
24) CO[C@@H]1C(O)[C@H](O[C@H]2CC[C@@]3(C=O)[C@H](CC[C@@H]4[C@@H]3CC[C@]3(C)[C@@H](C5=CC(=O)OC5)CC[C@]43O)C2)OC(C)[C@@H]1O (some centres not stated)
assay / entry | 17 | 18 | 19 | 20 | 21 | 22 | 23 | 24
TAR Tat displ | 0.76 | 1.66 | x | -8.39 | 0.36 | 3.2 | x | 0.98
CDC25B CDK2 inh | x | x | -1 | -3.1 | -1.53 | x | -0.5 | x

25) C#CCOS(=O)OC1CCCCC1Oc1ccc(C(C)(C)C)cc1 (configuration not stated)
26) CN1[C@H]2C[C@H](OC(=O)[C@H](CO)c3ccccc3)C[C@@H]1[C@@H](O)C2
27) CNCCc1c[nH]c2ccc(O)cc12
28) CC/C(=C/c1ccc(OC)c(OCc2ccccc2)c1)[N+](=O)[O-]
29) Cc1[nH]c2ccc(O)cc2c1CCN
30) CC(C)=CCC[C@]1(C)C=Cc2c(O)c3c(c(CC=C(C)C)c2O1)O[C@]12C(=CC4C[C@@H]1C(C)(C)O[C@@]2(C/C=C(/C)C(=O)O)C4=O)C3=O
31) O=c1c2ccccc2nc(CNc2ccccc2)n1-c1ccccc1
32) CNC(=O)O/N=C(\N)Cc1csc2ccc(Cl)cc12
assay / entry | 25 | 26 | 27 | 28 | 29 | 30 | 31 | 32
TAR Tat displ | 2.11 | x | x | x | x | 1.64 | -0.57 | x
CDC25B CDK2 inh | x | -2.97 | 9.78* | -1.36 | -1.33 | x | -0.87 | -1.69

33) Cc1ccc2c(c1)c1c3n2CNCC3CCC1 (configuration not stated)
34) CCCCc1nn2c(=O)cc(COC(=O)Cc3ccccc3)nc2s1
35) CC1(C)CC(n2[nH]c(=O)c3c2NC(=O)CSC3c2ccc(Cl)cc2)CCO1 (configuration not stated)
36) S=c1[nH]c2ccccc2[nH]1
37) O=C1C=CC(=O)c2ccccc21
38) Cc1ccc(NC2=NCC(C)S2)c(C)c1 (configuration not stated)
39) O=C(c1cccc2ccccc12)c1cn(CCN2CCOCC2)c2ccccc12
40) CC(C)(O)[C@@H]1[C@H]2OC(=O)[C@@H]1[C@]1(O)C[C@H]3O[C@]34C(=O)O[C@H]2[C@]14C (tested in a mixture with another compound)
assay / entry | 33 | 34 | 35 | 36 | 37 | 38 | 39 | 40
TAR Tat displ | x | -0.34 | 0.89 | x | -0.89 | 1.64 | 0.31 | 1.59
CDC25B CDK2 inh | -1.79 | x | 0.1 | -2.5 | x | -0.89 | x | 0.06
